Screening data (PubChem)
Mtb growth – Confirmatory growth inhibition assay against Mycobacterium tuberculosis H37Rv, potency (AID 1949). most inactive calls were filed without a number and no value below 0 was filed. inhibition, % at 10 µg/mL, or IC50 in µg/mL where a hit was titrated. 100,000 compounds, 1.6% hits;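 active means confirmed in a dose series; inconclusive means about 50% or more but not retested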;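 further: bacteria grown 7 days with compound before Alamar blue readout; 0% = untreated bacteria and 100% = reference antibiotic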
Active calls of the source: *; i = inactive; ? = inconclusive.

Sample of the layout:
no.	SMILES	Mtb growth
1	CSc1cccc(NC(=O)COc2ccc(S(=O)(=O)N(C)Cc3ccccc3)cc2)c1	i
2	O=C(Nc1cccc(F)c1)c1ccc(Cl)c(S(=O)(=O)N2CCOCC2)c1	i
3	CCOc1ccc(NC(=O)Nc2ccc(I)cc2)cc1	i
4	CS(=O)(=O)N(CC(=O)Nc1cccc(Cl)c1)c1cc(Cl)ccc1Cl	i

This part in full, repeating the preview:
no.	SMILES	Mtb growth
1	CSc1cccc(NC(=O)COc2ccc(S(=O)(=O)N(C)Cc3ccccc3)cc2)c1	i
2	O=C(Nc1cccc(F)c1)c1ccc(Cl)c(S(=O)(=O)N2CCOCC2)c1	i
3	CCOc1ccc(NC(=O)Nc2ccc(I)cc2)cc1	i
4	CS(=O)(=O)N(CC(=O)Nc1cccc(Cl)c1)c1cc(Cl)ccc1Cl	i
5	COc1ccc(-n2nc3cc(N)c(Br)cc3n2)cc1	8%
6	CCOC(=O)N1CCN(C(=S)Nc2ccc(Cl)cc2C)CC1	i
7	O=C(Oc1ccc(OC(=O)N2CCOCC2)cc1)c1ccccc1	i
8	COc1cc(NC(=O)C/C(C)=N/NC(=O)c2ccoc2C)cc(OC)c1	i
9	CSc1cccc(NC(=O)CSc2nc(C)cc(C)n2)c1	i
10	CC(NS(=O)(=O)c1ccc(Cl)cc1)C(=O)N1CCOCC1 (stereo not given)	0%
11	CCOC(=O)NCc1ccc(S(=O)(=O)Nc2c(C)cccc2C)cc1	i
12	COc1ccc(CNC(=O)C2C3CCC(O3)C2C(=O)O)cc1 (stereo not given)	i
13	Cc1ccccc1C(=O)N1CCN(c2ccc(NC(=O)COc3ccc([N+](=O)[O-])cc3)cc2)CC1	i
14	COc1ccccc1N1C(=O)/C(=C/c2c(F)cccc2Cl)SC1=S	i
15	COc1ccc(C)cc1NC(=S)N1CCN(c2ccc(C(C)=O)cc2)CC1	i
16	O=c1cc(-c2ccccc2)c2ccc(OCc3ccccc3F)cc2o1	i
17	CCc1c(C)sc(NC(=O)c2c(-c3ccccc3Cl)noc2C)c1C(N)=O	i
18	Cc1ccc(-n2[nH]nnc2=S)cc1C	i
19	O=C(COc1ccccc1)N1CCN(c2cccc(Cl)c2)CC1	i
20	COc1ccc2nc(NC(=O)c3cccc(I)c3)sc2c1	0%
21	Nc1nc(SCC(=O)c2ccc([N+](=O)[O-])cc2)n[nH]1	i
22	C=CCNC1CC(=O)N(c2ccccc2)C1=O (stereo not given)	i
23	CCCCC(=O)Nc1ccc(NC(=O)c2cc(Br)ccc2Cl)cc1OC	i
24	Cc1c(Cc2ccccc2)sc(NC(=O)COc2ccc(C(C)C)cc2)c1C(N)=O	i

A different layout for 2 compounds above:
22) C=CCNC1CC(=O)N(c2ccccc2)C1=O (stereo not given)
  Mtb growth: i
23) CCCCC(=O)Nc1ccc(NC(=O)c2cc(Br)ccc2Cl)cc1OC
  Mtb growth: i

The list goes on.
no.	SMILES	Mtb growth
25	O=C1CC(N(Cc2ccc(F)cc2)C(=O)Nc2ccc(F)cc2)C(=O)N1c1ccc(Cl)cc1 (stereo not given)	i
26	COc1cccc(N2CCN(C(=O)Nc3cccc(C(C)=O)c3)CC2)c1	i
27	COc1ccc(OCc2cccc([N+](=O)[O-])c2)cc1	5%
28	Cc1cc2ncn(CCOc3ccccc3C#N)c2cc1C	i
29	COC(=O)C(C)NC(=O)c1ccc(C(C)(C)C)cc1 (stereo not given)	i
30	COc1ccccc1-n1c(=O)c2c3c(sc2n2c(SCCc4ccccc4)nnc12)CCC3	i
31	COc1cc(S(=O)(=O)NC2CCCC2)ccc1F	0%
32	Cc1ccccc1NC(=O)OCc1ccccc1	6%
33	Cc1ccccc1OCC(=O)Nc1ncc(Cc2cccc(Cl)c2)s1	i
34	COCc1cc(C)nc(SCC(=O)Nc2ccc(Br)cc2F)c1C#N	i
35	COC(=O)c1c(C)n(Cc2ccccc2)c2ccc(O)cc12	i
36	CCOc1ccc2[nH]c(=S)sc2c1	i
37	O=C(CCc1ccc(S(=O)(=O)NC2CCCCC2)cc1)NCc1cccnc1	i
38	O=C(C1Cc2ccccc2CN1S(=O)(=O)c1cccs1)N1CCCCC1 (stereo not given)	i
39	CCOc1ccc(C2C(C(=O)c3cccs3)=C(O)C(=O)N2CCN2CCOCC2)cc1 (stereo not given)	i
40	Cc1ccc2nc(SCC(=O)N3CCc4ccccc43)[nH]c2c1	i
41	CN1CCN(NC(=O)c2cc(-c3cccnc3)nc3ccc(Cl)cc23)CC1	1%
42	O=C(Nc1cccc(Br)c1)C1CC(=O)N(c2ccc(F)cc2)C1 (stereo not given)	i
43	CCOC(=O)c1c(NC(=O)c2cc(Cl)ccc2OC)sc(C(C)=O)c1C	i
44	NC(=O)c1ccccc1NC(=O)c1cccc2c(Br)cccc12	i
45	NS(=O)(=O)c1ccc(NC(=S)N2CCOCC2)cc1	i
46	C(=C\c1nc(-c2ccccc2)no1)/c1ccccc1	i
47	CCOC(=O)C(CC)n1cnc2scc(-c3ccccc3)c2c1=O (stereo not given)	i
48	O=C(Nc1ccc(N2CCOCC2)c(Cl)c1)c1cc(F)c(F)cc1Cl	2%
49	COc1ccc(N2CCN(S(=O)(=O)c3ccc(C)cc3)CC2)c([N+](=O)[O-])c1	i
50	CCc1ccc(S(=O)(=O)NC(CC(=O)O)c2ccccc2)cc1 (stereo not given)	i
51	CCc1c(C(=O)NNC(=O)Nc2ccccc2C(=O)OC)csc1C	i
52	CCOC(=O)C1CCN(C(=O)CN(c2cccc(OC)c2)S(=O)(=O)c2ccccc2)CC1	1%
53	COC(=O)c1ccccc1NC(=O)CCCOc1ccccc1C	2%
54	COc1cccc(C(=O)Nc2ccc(NC(C)=O)cc2)c1OC	i
55	CCOc1cc(C=O)cc(Cl)c1OC(=O)c1cccs1	i
56	CCOC(=O)c1ccc(NC(=O)c2ccc(C(=O)Nc3ccc(C(=O)OCC)cc3)nc2)cc1	i
57	Cc1ccc(S(=O)(=O)CCC(=O)OCc2ccc(Cl)c(Cl)c2)cc1	i
58	COc1nc2ccc(C)cc2cc1-c1noc(-c2cccnc2)n1	i
59	CCc1ccc(C(=O)Nc2ccccc2N2CCN(C(=O)c3ccccc3)CC2)cc1	i
60	Cc1ccc(S(=O)(=O)N(C)c2ccc(NS(C)(=O)=O)cc2)cc1	i
61	COc1ccc(NC(=S)Nc2ccc(Br)cc2F)cc1	i
62	Cc1ccc(CNC(=O)Cc2ccc(-c3ccccc3)cc2)cc1	48%
63	C=CCn1c(SCC(=O)NCCc2ccccc2)nnc1-c1ccc(Cl)cc1Cl	i
64	COC(=O)c1c(NC(=O)CCCOc2ccccc2C)sc2c1C(C(=O)OC)CC2 (stereo not given)	4%
65	CC1(C)CC2CC(C)(CN2C(=O)c2ccccc2NC(=O)CCCN2C(=O)c3ccccc3C2=O)C1 (stereo not given)	i
66	COc1ccc(-c2noc(-c3ccccc3OC)n2)cc1	10%
67	Cc1c(NC(=O)C2CCCN2S(=O)(=O)c2ccccc2)c(=O)n(-c2ccccc2)n1C (stereo not given)	i
68	COc1ccc(N(CC(=O)Nc2ccc(C)cc2C)S(C)(=O)=O)cc1OC	i
69	O=C(c1ccco1)N1CCN(C(=S)Nc2ccc(Nc3ccccc3)cc2)CC1	i
70	COc1cc(S(=O)(=O)N2c3ccccc3CC2C)ccc1Cl (stereo not given)	0%
71	O=C(COc1ccc(Cl)cc1)Nc1ccccc1C(=O)NCc1ccco1	3%
72	CCCC(=O)Nc1ccc(Cl)c(NC(=O)c2cc(I)ccc2Cl)c1	i
73	O=S(=O)(Nc1cc(Cl)ccc1Oc1ccccc1)c1ccc(F)cc1	i
74	Cc1ccc(NC(=O)C2CCN(S(C)(=O)=O)CC2)cc1	i
75	CCc1cc(Br)ccc1NC(=O)Cc1ccc(Cl)cc1	1%
76	CC(=O)c1c(C)oc2c(Br)cc(NS(=O)(=O)c3cccs3)cc12	i
77	CC(c1ccccc1)N1C(=O)c2ccc(C(=O)O)cc2C1=O (stereo not given)	4%
78	CCOC(=O)c1c(NC(=O)c2ccccc2[N+](=O)[O-])sc(C)c1CC	i
79	CCOC(=O)c1cc(NC(=O)C2CCCO2)cc(C(=O)OCC)c1 (stereo not given)	i
80	O=C(c1cccnc1)N1N=C(c2ccc(Br)cc2)CC1(O)C(F)(F)F (stereo not given)	7%
81	O=C(Nc1cc(C(F)(F)F)ccc1OCC1CCCO1)c1cccc([N+](=O)[O-])c1 (stereo not given)	i
82	Cc1cc(CNC(=S)Nc2ccc(F)cc2F)nn1C	i
83	Cc1ccc2c(Cl)c(C(=O)Nc3ccc(S(=O)(=O)N4CCCCC4C)cc3)sc2c1 (stereo not given)	i
84	CCN(CC)C(=O)/C(=C\c1ccc(Br)cc1)NC(=O)c1ccccc1OC	i

More compounds:
no.	SMILES	Mtb growth
85	CC(C)CNC(=O)c1cccc2ccccc12	i
86	C=CCn1c(SCC(=O)Nc2ccccc2C)nc2ccccc2c1=O	2%
87	Cc1cc(C)nc(NC(=O)c2c(C)noc2C)n1	i
88	CCC(CC)NC(=O)c1sc2ccccc2c1Cl	i
89	CCOC(=O)C1CCCN(C(=O)CC)C1 (stereo not given)	i
90	COc1ccccc1N/C=C(\C#N)c1nc2ccccc2[nH]1	8%
91	COc1ccc(S(=O)(=O)Nc2ccccc2SC)c(Cl)c1Cl	i
92	COc1ccc(Nc2ncnc3ccc(C)cc23)cc1	0%
93	CCOC(=O)C1CCN(C(=O)c2ccc(SC)cc2OC)CC1	1%
94	Cc1cc(OC(=O)N2CCOCC2)cc(C)c1Cl	5%
95	COc1ccc(NC(=O)Nc2ccccc2SC)c(OC)c1	i
96	Cc1n[nH]c(C)c1NC(=S)NC(=O)c1ccccc1	i
97	Cc1ccc(OCCSc2nc3ccccc3o2)cc1	1%
98	NC1=NS(=O)(=O)NC1c1ccc(F)cc1 (stereo not given)	i
99	Cc1ccc(N2C(=O)CC(N3CCN(Cc4ccccc4)CC3)C2=O)c(Cl)c1 (stereo not given)	i
100	CCN(CC)C(=O)c1cn(-c2ccccc2)nc1-c1ccc2cc(OC)ccc2c1	8%
101	CCOC(=O)c1ccc(N2C(=O)CC(N3CCc4ccccc43)C2=O)cc1 (stereo not given)	i
102	CC(=O)c1c(C)nc(-c2cccs2)n1O	i
103	CCC(C)n1c(S(=O)(=O)O)nc2ccccc21 (stereo not given)	i
104	CNC(=S)N1CCN(C(=O)C2CCCO2)CC1 (stereo not given)	2%
105	CC(C)c1ccccc1NC(=O)c1cc(Br)ccc1Cl	i
106	C/C(=N\N=C1\NC(=O)C(CC(=O)Nc2cccc(C)c2C)S1)c1ccc(Cl)cc1 (stereo not given)	i
107	O=C(CCC(=O)Nc1ccccc1Cl)NNC(=S)NCc1ccco1	i
108	Cc1sc2nc(SCC(=O)NC3CCCCC3)n(-c3ccccc3)c(=O)c2c1C	i
109	CS(=O)(=O)N(CC(=O)N1CCCCC1)c1ccc2c(c1)OCO2	i
110	Cc1ccc(C(=O)c2ccc(O)cc2)cc1C	4%
111	COc1ccc2c(c1)c(=O)oc1c(C)c(OCC(N)=O)ccc12	i
112	CCN(CC)C(=O)c1sc(NC(=S)NCc2cc(C)n(C)n2)c(C(=O)OC)c1C	i
113	CCCC(=O)Nc1ccccc1NC(=O)c1cccc([N+](=O)[O-])c1C	i
114	CCCCC(=O)NCc1ccccc1Cl	i
115	COc1ccc2c(c1)C(Sc1ccccc1)c1ccccc1O2 (stereo not given)	i
116	O=C(Nc1ccccc1C(=O)Nc1nc2ccccc2s1)c1ccco1	i
117	CC(C)c1nnc(SCc2c(F)cccc2Cl)n1N	i
118	Cc1c(NC(=O)CN(c2cc(Cl)ccc2Cl)S(C)(=O)=O)c(=O)n(-c2ccccc2)n1C	2%
119	Cc1cc(C(C)(C)C)cc(S(=O)(=O)ON2C(=O)c3ccccc3C2=O)c1C	i
120	CSc1ccccc1NC(=O)Cc1ccc(Br)cc1	i

Quoted at random: 6 compounds from above.
no.	SMILES	Mtb growth
119	Cc1cc(C(C)(C)C)cc(S(=O)(=O)ON2C(=O)c3ccccc3C2=O)c1C	i
110	Cc1ccc(C(=O)c2ccc(O)cc2)cc1C	4%
117	CC(C)c1nnc(SCc2c(F)cccc2Cl)n1N	i
114	CCCCC(=O)NCc1ccccc1Cl	i
115	COc1ccc2c(c1)C(Sc1ccccc1)c1ccccc1O2 (stereo not given)	i
116	O=C(Nc1ccccc1C(=O)Nc1nc2ccccc2s1)c1ccco1	i

Additional entries.
no.	SMILES	Mtb growth
121	COc1ccccc1C(=O)Nc1nc2c(s1)CC(C)CC2 (stereo not given)	?
122	O=C(NC(=S)NCc1ccccc1)c1ccc2c(c1)OCO2	i
123	CC(=O)Nc1ccc(Br)cc1C(=O)OCc1cccc([N+](=O)[O-])c1	i
124	O=C1CC(N2CCN(c3ccccc3F)CC2)C(=O)N1c1cccc([N+](=O)[O-])c1 (stereo not given)	i
125	COc1ccc(-c2cc(=O)oc3cc(O)ccc23)cc1	i
126	CCc1ccccc1NC(=O)CSc1nnc(-c2ccncc2)n1-c1ccccc1	i
127	O=C(Nc1cccc([N+](=O)[O-])c1)Nc1ccc2c(c1)OCCO2	i
128	COc1ccc(N(C(C)C(=O)Nc2cccc(C(C)=O)c2)S(C)(=O)=O)cc1 (stereo not given)	i
129	COC(=O)c1cccc(NC(=O)C(C)Oc2cccc(Br)c2)c1 (stereo not given)	2%
130	CC(C)(C)C(=O)Nc1ccccc1N1CCN(C(=O)c2ccc(Cl)cc2)CC1	i
131	Cc1ccc(-c2nnc(Nc3ccc4c(c3)OCO4)c3ccccc23)cc1S(=O)(=O)NCCO	i
132	CCOc1ccc2c(C)c(C(=O)O)oc2c1OCC	0%
133	CCc1cc2c(N)c(C(=O)OC)sc2nc1C	i
134	Cc1ccc(S(=O)(=O)N(C)CC(=O)Nc2ccc3ccccc3c2)cc1	i
135	COC(=O)c1cccc(NC(=O)CCCOc2ccc(C)cc2C)c1	i
136	O=C(Nc1ccc(S(=O)(=O)Nc2ncccn2)cc1)c1cccc2ccccc12	i
137	CN1C(=O)c2ccc(NC(=O)c3cccc(-c4cc5ccccc5oc4=O)c3)cc2C1=O	1%
138	Cc1c(NC(=O)COc2ccc3ccccc3c2)cccc1-c1nc2cc(Cl)ccc2o1	i

Some of the compounds tested, so the mix of outcomes need not match the whole.
